NS1 function inh = blocks influenza NS1 protein function; S. cerevisiae slowed by influenza A NS1, growth recovery by OD600; Potency, µM (titrated, usually from 46.1 µM), for inactives: at the top dose activity, positive = more growth; hit rate 0.4% among 270,000; also: actives are rising curves; nearly all actives have a fitted effect of over 50% in size
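Compounds were scored for reversing the slow growth caused by influenza A NS1 in S. cerevisiae, measured by optical density at 600 nm. Assay medium contained 2% galactose at pH 6.0; NS1-free yeast of the same strain were the positive control.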
Cruzain Triton = cruzain (T. cruzi) inhibition with detergent; P25779; hit rate 0.43% among 200,000; Potency, µM, without a hit: max response, negative = inhibition, hits mostly inhibitors; purified cruzain, Z-FR-AMC fluorescence, 0.01% Triton; active = well fitted curve in the direction sought with a large enough effect; inconclusive = small, poorly fitted or top-dose-only effect, or another doubt; inactive = no such curve, though single readings can be large; an effect the other way counts as inactive or inconclusive;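 also: plate controls were neutral wells for no effect and buffer without enzyme for full effect; nearly all actives have a fitted effect of over 40% in size; top concentration of the series not given in the record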
Target sequence (P25779 123-467 limits assumed): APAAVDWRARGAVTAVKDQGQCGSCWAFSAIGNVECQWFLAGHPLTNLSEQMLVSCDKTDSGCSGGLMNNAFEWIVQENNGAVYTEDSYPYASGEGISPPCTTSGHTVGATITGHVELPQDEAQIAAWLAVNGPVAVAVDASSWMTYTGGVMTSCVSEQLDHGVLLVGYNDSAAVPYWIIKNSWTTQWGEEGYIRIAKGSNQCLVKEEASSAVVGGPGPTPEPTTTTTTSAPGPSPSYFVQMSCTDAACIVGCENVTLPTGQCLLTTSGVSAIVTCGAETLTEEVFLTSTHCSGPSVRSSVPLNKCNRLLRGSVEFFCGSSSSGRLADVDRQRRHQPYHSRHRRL
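Steps: dispense cruzain (1.5 nM final) in acetate buffer pH 5.5 with DTT and 0.01% Triton X-100; pin-transfer compounds; incubate 15 min RT; add Z-FR-AMC (2 uM final); read fluorescence every 30 s, using the 60 s intensity change.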
2A StopGo = FMDV 2A StopGo reporter, luciferase signal; human cells with a luciferase reporter of 2A StopGo recoding; control for the full effect not named in the record; Potency, µM (series often up to 57.9 µM), for the others: at the top dose signal change, negative = less light; hit rate 1.2% among 410,000; AID 1159524; active = well fitted falling curve with a large enough effect; inconclusive = small, poorly fitted or top-dose-only effect; inactive = no such curve, though single readings can be large or run the other way; tested in HEK293T cells; also: % is scaled to controls: 0 for no effect and ±100 for the full control effect; nearly all actives have a fitted effect of over 45% in size; luciferase light after 4 h
Marburg entry inh = Marburg virus entry inhibition | Marburg virus pseudotyped entry inhibition, cell reporter; control for the full effect not named in the record; about a third of the inactives were read at about 46 µM | Potency, µM (doses to about 37.8 µM), inactives show top-dose activity change, negative = inhibition, usual class: inhibitors | AID 540276 | hit rate 1.8% among 300,000; active = well fitted inhibition curve with a large enough effect; inconclusive = small, poorly fitted or top-dose-only effect, or effect the other way; inactive = flat fitted curve, though single readings scatter; tested in HEK293 cells; about a fifth of its hits are not listed in these tables; also: % is scaled to controls: 0 for no effect and ±100 for the full control effect; luciferase read-out
SARS PLpro yeast = inhibitors of SARS-CoV papain-like protease in yeast; Potency, µM (top dose mostly 32.9 µM), without a hit: at the highest dose activity, positive = growth rescue; hit rate 0.19% among 330,000; AID 485353; S. cerevisiae expressing SARS-CoV PLpro, growth rescue; control for the full effect not named in the record; also: 0% is about no effect; nearly all actives have a fitted effect of over 55% in size; growth read by luminescence after 48 h
Lassa entry inh = Lassa virus entry inhibition; Potency, µM (doses to about 37.9 µM), for inactives: top-dose activity change, negative = inhibition, most hits filed as inhibitors; hit rate 1.2% among 300,000; Lassa virus pseudotype entry inhibition, cell reporter; control for the full effect not named in the record; active means well fitted inhibition curve with a large enough effect; inconclusive means small, poorly fitted or top-dose-only effect, or effect the other way; inactive means flat fitted curve, though single readings scatter; tested in HEK293 cells; also: % is scaled to controls: 0 for no effect and ±100 for the full control effect; nearly all actives have a fitted effect of over 50% in size; luciferase read-out
Cruzain inh noDet = inhibitors of Trypanosoma cruzi cruzain without detergent. P25779. purified cruzain, Z-FR-AMC fluorescence, no detergent. Potency, µM, for inactives: max response, negative = inhibition, usual class: inhibitors. hit rate 2.3% among 200,000. AID 1476; active = well fitted curve in the direction sought with a large enough effect; inconclusive = small, poorly fitted or top-dose-only effect, or another doubt; inactive = no such curve, though single readings can be large; an effect the other way counts as inactive or inconclusive;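 also: plate controls were enzyme without inhibitor for no effect and buffer without enzyme for full effect; nearly all actives have a fitted effect of over 40% in size; top concentration of the series not given in the record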
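Purified cruzain at 1.5 nM, pre-incubated 15 min with compound at room temperature in 100 mM sodium acetate pH 5.5, 5 mM DTT, 0.00005% Triton X-100. Reaction started with 2 uM Z-FR-AMC; AMC fluorescence increase over 60 s gives rate.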
RE007 growth inh = less growth of the S. pombe RE007 Vpr strain. hit rate 0.21% among 360,000. S. pombe RE007 Vpr strain, BacTiter-Glo ATP luminescence, 24 h; control for the full effect not named in the record. AID 651644. Potency, µM (doses to about 92.2 µM), without a hit: top-dose activity change, negative = less growth; active = well fitted falling curve with a large enough effect; inconclusive = small, poorly fitted or top-dose-only effect; inactive = no such curve, though single readings can be large or run the other way;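 also: % is scaled to controls: 0 for no effect and ±100 for the full control effect; nearly all actives have a fitted effect of over 50% in size; the assay follows cell death caused by Vpr and the record does not say whether a fall means rescue or toxicity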
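Fission yeast strain RE007, carrying one chromosomally integrated HIV-1 vpr copy, was seeded at OD 0.01 in PMG+AL medium with 23 nL pinned compound. After 24 h at 30 °C and 99% humidity, viability was read by BacTiter-Glo luminescence.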
Starred values were filed as active, the others as inactive; u = inconclusive; x = not tested or not shown; & = joins results of further samples; [ ] = dose if it differs, or a comment. Unless noted, calls follow the shape of the dose curve; as a rule, active means well fitted rising curve with a large enough effect; inconclusive means small, poorly fitted or top-dose-only effect; inactive means no such curve, though single readings can be large or run the other way. Potency is read from the fitted curve at half-maximal effect.

structure | Marburg entry inh | 2A StopGo | Cruzain Triton | RE007 growth inh | Lassa entry inh | SARS PLpro yeast | Cruzain inh noDet | NS1 function inh
CCOc1ccc(N(CC)S(=O)(=O)c2c(C)[nH]c(=O)[nH]c2=O)cc1 | 2%[46.1 µM] | -14% | x | -8% | 9%[46.1 µM] | 0% | x | 0%
Cn1c(N)c(C(=O)COC(=O)[C@@H]2CCCN2S(=O)(=O)c2ccc(Cl)cc2)c(=O)n(C)c1=O | 17%[46.1 µM] | -7% | x | -11% | 16% | -4% | x | x
C=CCOC(=O)C(C#N)c1nc2ccccc2nc1N1CCN(Cc2ccc3c(c2)OCO3)CC1 (configuration not stated) | u | u | -1.6% | 16% | -1% | -5% | u | -43%
CCCOc1ccc(C2c3c(-c4ccccc4O)n[nH]c3C(=O)N2CCCOCC)cc1OCC (configuration not stated) | u | -11% | -13% | x | x | x | u | x
CCOc1ccc(CCNC(=O)c2cn(C)c3ccc(S(=O)(=O)N4CCOCC4)cc3c2=O)cc1OCC | -24%&-24%[46.1 µM] | 0%&7% | -6.4% | -3% | 9%[46.1 µM] | -2% | 27% | 11%
CCOC(=O)N1CCN(C(=O)c2cc(COc3c(F)cccc3F)on2)CC1 | u | -21% | x | -9% | u | 2% | x | -34%
Cc1ccc(C(c2c(C)[nH][nH]c2=O)c2c(C)[nH][nH]c2=O)cc1[N+](=O)[O-] | -13% | -8% | -0.3% | 5% | -1% | 2% | -8% | -2%
CCCOC(=O)CN1C(=O)c2ccc(C(=O)OCCC)cc2C1=O | -4% | -13% | -2.9% | -14% | -13% | 2% | -2% | -9%
CCc1ccc(-n2c(=O)c3c4c(sc3n(CC(=O)c3ccc(Br)cc3)c2=O)CCC4)cc1 | u | 6% | -3.1% | x | -25%[46.1 µM] | x | -22% | x
CCN1CCN(C(=O)c2ccc(CS(=O)(=O)Cc3ccccc3F)o2)CC1 | 2% | 1% | -3.4% | 1% | 8% | 1% | -4% | 0%
CCC(C)C(NC(=O)OC(C)(C)C)C(=O)NC(CC(C)C)C(N)=O (configuration not stated) | 2% | -11% | -3.0% | 0% | 6% | 1% | -19% | -3%
CCOC(=O)N1CCC(NC(=O)CN(C)S(=O)(=O)c2cc3c(cc2Cl)NC(=O)CO3)CC1 | 4% | x | 1.1% | -8% | -22% | 4%[6.58 µM] | 3% | 2%
O=C(Nc1nc2cc3c(cc2s1)OCO3)C1CCCCC1 | x | 0% | x | 1% | x | 0% | x | -13%
COc1cccc(C(=O)C2CCCN(Cc3cccn3-c3ccccn3)C2)c1 (configuration not stated) | u | -26% | x | -16% | u | -1% | x | 14%
O=C(NCc1csc(-c2ccccc2)n1)c1cc(F)cc2c1OCOC2 | 1%[46.1 µM] | 61%[activator] | x | -3% | u | 0% | x | -10%
Cc1cccc([C@H]2[C@@H]3C=CC[C@@H](C)[C@@H]3C(=O)N2Cc2ccccc2)c1 | x | u | -0.7% | 17% | x | -69% | -2% | x
O=C(Nc1ccccc1)N1CCN2C(=O)c3ccccc3C12c1ccccc1 (configuration not stated) | u | -14% | -1.7% | -12% | u | -1% | -2% | -30%
CCc1ccc(C2NC(c3ccc(CC)cc3)C([N+](=O)[O-])C(C)(C)C2[N+](=O)[O-])cc1 (configuration not stated) | -18% | -29% | -1.5% | -4% | 11% | 7% | u | 22%
C=CCNC(=S)Nc1sc2c(c1C(N)=O)CCCC2 | 2%[46.1 µM] | 59%[activator] | x | -14% | 0% | 1% | x | 0%
Cc1cc2c(ncn2C)c(NS(=O)(=O)c2ccc(F)cc2)c1C | u | 4% | x | -19% | -7%[46.1 µM] | 2% | x | x
COc1ccc(NC(=O)/C(Cl)=C(/Cl)S(=O)(=O)Cc2ccc(C)cc2)cn1 | 4.5µM* | 22µM* | -4.7% | u | 14µM* | -34% | 5% | -231%
COc1ccc(CCN2C(=O)NC(NC(=O)c3ccccc3OC)(C(F)(F)F)C2=O)cc1OC (configuration not stated) | 26%[46.1 µM] | -17% | -4.1% | x | 16%[46.1 µM] | x | 22% | x
Cc1ccc(S(=O)(=O)Oc2ccc(/C=C3/C(=N)N4C(=NC3=O)SN=C4S(C)(=O)=O)cc2)cc1 | x | -3% | x | 0% | x | 4% | x | 0%
CCC(C)(C)n1nnnc1CN1CCC(n2c(C)nc3cc(C(F)(F)F)ccc32)CC1 | -2% | -11% | -2.7% | -1% | -7% | 20% | u | 4%
CCOC(=O)c1c(-c2ccc(F)cc2)csc1NC(=O)c1c(-c2ccccc2)noc1C | 3.5µM* | -27% | -5.4% | -7% | 8.9µM* | 3% | -49% | 8%
CCOc1cc(/C=C2\CCCc3c2nc2ccccc2c3C(=O)O)ccc1OC | 27%[46.1 µM] | 9% | x | 8% | -12%[46.1 µM] | 15% | x | 5%
CC1=C(CCN2CCN(C3CCCC3)C(CCO)C2)C(C)(C)CCC1 (configuration not stated) | u | -12% | x | -12% | -30%[46.1 µM] | 0% | x | -2%
CC1CCC(NC(=O)Cn2cc3c(n2)CCCC3)CC1 (configuration not stated) | x | 56%[activator] | 6.4% | -1% | x | -3% | -5% | 1%
CC(NCCc1ccc(S(N)(=O)=O)cc1)C(=O)NCCc1ccc(F)cc1 (configuration not stated) | x | -22% | x | -10% | x | -1% | x | 1%
Cc1ccccc1CSCC(=O)NCCSc1ccccn1 | 12%[46.1 µM] | 20% | x | 17% | x | -1% | x | x
COc1cc2c(O)cc(C(=O)O)c(-c3cc(OC)c(OC)c(OC)c3)c2cc1OC | 4%[46.1 µM] | -1% | x | -1% | -10%[46.1 µM] | x | x | x
CCc1nn(CCCC(=O)NC(C)c2ccccc2)c(=O)c2cc3occc3n12 (configuration not stated) | -5%&29%[46.1 µM] | -2%&8% | -1.7% | -4% | 0%&-11%[46.1 µM] | -2% | -2% | 8%
CC(C)(C)c1nnc2sc(SCC(=O)N3CCc4ccccc43)nn2c1=O | u | -24% | x | 29% | 4% | -2% | x | x
CC1(C)CN(C(Cc2ccccc2)C(N)=O)C1=O (configuration not stated) | 3% | -5% | x | -4% | x | -1% | x | 0%
O=C(CC(C(=O)O)c1ccc(Cl)cc1)c1ccc(Cl)c(Cl)c1 (configuration not stated) | -14%[46.1 µM] | 0% | x | -26% | 8% | 0% | x | -12%
Fc1ccccc1/C=N/Nc1nc2ccccc2o1 | x | 12% | x | 6% | x | 0% | x | -5%
O=C(c1ccccc1OCc1ccccc1Br)N1CCN(c2ncccn2)CC1 | u | -17% | -12% | 15% | u | -16% | 16% | -105%
Cc1cccc(N(CC(=O)NC2CCCCC2)C(=O)c2c(C)noc2C)c1 | -6% | -20% | 6.7% | 1% | 12% | 8% | 5% | -1%
Cc1cccc(-c2noc(CCCC(=O)NC3CCCC3)n2)c1 | -24%[46.1 µM] | -8% | x | 5% | -17%[46.1 µM] | -3% | x | -6%
COc1ccc(OC(=O)c2nc(SCc3ccc(F)cc3)ncc2Cl)cc1 | 9%[46.1 µM] | 3% | -2.5% | x | 15%[46.1 µM] | x | -30% | x
CCOc1cc(NC(=O)c2ccccc2C)c(OCC)cc1NC(=O)C1=Cc2ccccc2OC1 | -1% | -19% | 3.4% | -3% | u | -1% | u | 5%
COC(=O)C1C2C=CC3(CN(c4cccc(Cl)c4)C(=O)C13)O2 (configuration not stated) | x | -16% | 0.7% | 4% | x | 2% | 0% | 4%
Oc1ccc(/C=N/Nc2ccc(Cl)nn2)cc1O | x | 28% | x | 7% | x | 1% | x | 8%
Cc1ccc(S(=O)(=O)NC(=O)NCCCCNC(=O)NS(=O)(=O)c2ccc(C)cc2)cc1 | 14% | -11% | 3.1% | -22% | 9% | -11% | 4% | 3%
Cc1ccc(C(CC(=O)Nc2ccc(C)cc2C)N2Cc3ccccc3C2=O)cc1 (configuration not stated) | x | 59%[activator] | -6.8% | x | u | x | 9% | x
CN1CCN(C(=O)C2=C[C@@H](c3csc4ccccc34)C[C@@H](OCc3ccc(CO)cc3)O2)CC1 | x | 0% | x | -6% | x | -1% | x | 1%
Cc1cccc(N2CCN(c3nc4ccc(Cl)cc4n4cnnc34)CC2)c1C | 12% | 0% | -0.3% | 13% | -30% | 6% | u | -32%
O=C(NC1CCCCC1)c1ccc2c(c1)N(Cc1ccccc1Cl)C(=O)c1ccccc1S2 | x | 19% | 2.1% | x | 0%[46.1 µM] | x | 10µM* | x
COc1ccc(/C=N/n2cnnc2)cc1Oc1nc(Cl)ncc1F | -15% | -17% | x | -10% | 3% | 1% | x | x
Cc1cc(OCC(=O)NCC(C)C)cc(C)c1Br | 23% | 2% | 1.2% | -30% | 24% | -2% | 1% | -117%
COc1ccc(C(c2ccc(OC)cc2)C(Cl)(Cl)Cl)cc1 | x | -22%&1% | -4.8%&4.2%&-3.6% | 10% | x | -3% | u | x
O=C1CC(=O)N(c2cccc(F)c2)N1 | -14%[46.1 µM] | -2% | x | 26% | 9%[46.1 µM] | 3% | x | x
COc1cc(C(CCN2CCCC2)c2c(OC)cc(OC)c3ccc(=O)oc23)cc(OC)c1OC (configuration not stated) | x | -6% | x | -14% | x | 10% | x | -2%

Compound profiles, from the list above. Order of screens: Marburg entry inh, 2A StopGo, Cruzain Triton, RE007 growth inh, Lassa entry inh, SARS PLpro yeast, Cruzain inh noDet, NS1 function inh
`Cc1cc(OCC(=O)NCC(C)C)cc(C)c1Br` as listed: 23%, 2%, 1.2%, -30%, 24%, -2%, 1%, -117%
`O=C1CC(=O)N(c2cccc(F)c2)N1` as listed: -14%[46.1 µM], -2%, x, 26%, 9%[46.1 µM], 3%, x, x

Screening data as filed in PubChem.
